High-throughput results (PubChem BioAssay)
LASV entry inh: inhibitors of Lassa virus binding or cell entry. Lassa virus pseudotype entry inhibition, cell reporter; control for the full effect not named in the record. Potency, µM (highest dose often 37.9 µM), without a hit: at the highest dose activity change, negative = inhibition, most hits filed as inhibitors. actives 1.2% (n = 300,000); active means well fitted inhibition curve with a large enough effect; inconclusive means small, poorly fitted or top-dose-only effect, or effect the other way; inactive means flat fitted curve, though single readings scatter; tested in HEK293 cells; note: % is set by controls: 0 for no effect and ±100 for the full control effect; nearly all actives have a fitted effect of over 50% in size; luciferase read-out
2A StopGo: lowers the luciferase signal of an FMDV 2A StopGo reporter; actives 1.2% (n = 410,000); Potency, µM (series often up to 57.9 µM), without a hit: at the highest dose signal change, negative = less light; AID 1159524; human cells with a luciferase reporter of 2A StopGo recoding; control for the full effect not named in the record; active = well fitted falling curve with a large enough effect; inconclusive = small, poorly fitted or top-dose-only effect; inactive = no such curve, though single readings can be large or run the other way; tested in HEK293T cells; note: % is set by controls: 0 for no effect and ±100 for the full control effect; nearly all actives have a fitted effect of over 45% in size; luciferase light after 4 h
NS1 function inh: inhibitors of influenza NS1 protein function; S. cerevisiae slowed by influenza A NS1, growth recovery by OD600; Potency, µM (top dose mostly 46.1 µM), for inactives: at the top dose activity, positive = more growth; actives 0.4% (n = 270,000); AID 2326; active means well fitted rising curve with a large enough effect; inconclusive means small, poorly fitted or top-dose-only effect; inactive means no such curve, though single readings can be large or run the other way; note: nearly all actives have a fitted effect of over 50% in size
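In this qHTS, NS1 from influenza A is expressed in budding yeast, where it slows growth. Cells are switched from glucose to 2% galactose medium (pH 6.0, -URA), treated with compound, and growth recovery is read at OD600.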
SARS PLP yeast: blocks SARS-CoV papain-like protease in a yeast assay | S. cerevisiae expressing SARS-CoV PLpro, growth rescue; control for the full effect not named in the record | Potency, µM (highest dose often 32.9 µM), for the others: at the top dose activity, positive = growth rescue | actives 0.19% (n = 330,000) | AID 485353; active means well fitted rising curve with a large enough effect; inconclusive means small, poorly fitted or top-dose-only effect; inactive means no such curve, though single readings can be large or run the other way; note: 0% is about no effect; nearly all actives have a fitted effect of over 55% in size; growth read by luminescence after 48 h
Cruzain inh noDet: cruzain (T. cruzi) inhibition without detergent; P25779; purified cruzain, Z-FR-AMC fluorescence, no detergent; Potency, µM, for the others: max response, negative = inhibition, usual class: inhibitors; actives 2.3% (n = 200,000); AID 1476;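 note: plate controls were enzyme without inhibitor for no effect and buffer without enzyme for full effect; nearly all actives have a fitted effect of over 40% in size; top concentration of the series not given in the record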
Target sequence (P25779 123-467 limits assumed): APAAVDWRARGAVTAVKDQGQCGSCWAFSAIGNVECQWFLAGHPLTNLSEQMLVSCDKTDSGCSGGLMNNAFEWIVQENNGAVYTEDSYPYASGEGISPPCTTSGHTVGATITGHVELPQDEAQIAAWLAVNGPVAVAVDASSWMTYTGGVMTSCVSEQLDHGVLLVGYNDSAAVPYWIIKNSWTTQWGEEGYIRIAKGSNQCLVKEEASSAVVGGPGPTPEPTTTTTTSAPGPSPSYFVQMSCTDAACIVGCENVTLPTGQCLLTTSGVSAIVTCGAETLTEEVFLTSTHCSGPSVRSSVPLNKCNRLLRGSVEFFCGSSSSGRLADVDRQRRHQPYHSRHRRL
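Detergent-free condition (0.00005% Triton X-100) in acetate buffer pH 5.5 with DTT. 1.5 nM enzyme and compound were pre-mixed 15 min, then 2 uM Z-FR-AMC substrate added; reaction progress from fluorescence change between first and third reads (60 s).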
RE007 growth inh: less growth of the S. pombe RE007 Vpr strain | S. pombe RE007 Vpr strain, BacTiter-Glo ATP luminescence, 24 h; control for the full effect not named in the record | Potency, µM (top dose mostly 92.2 µM), for the others: top-dose activity change, negative = less growth | actives 0.21% (n = 360,000) | AID 651644; active = well fitted falling curve with a large enough effect; inconclusive = small, poorly fitted or top-dose-only effect; inactive = no such curve, though single readings can be large or run the other way;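 note: % is set by controls: 0 for no effect and ±100 for the full control effect; nearly all actives have a fitted effect of over 50% in size; the assay follows cell death caused by Vpr and the record does not say whether a fall means rescue or toxicity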
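Fission yeast strain RE007, carrying one chromosomally integrated HIV-1 vpr copy, was seeded at OD 0.01 in PMG+AL medium with 23 nL pinned compound. After 24 h at 30 °C and 99% humidity, viability was read by BacTiter-Glo luminescence.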
Marburg entry inh: inhibitors of Marburg virus binding or cell entry; Marburg virus pseudotyped entry inhibition, cell reporter; control for the full effect not named in the record; about a third of the inactives were read at about 46 µM; Potency, µM (doses to about 37.8 µM), for the others: at the top dose activity change, negative = inhibition, actives largely listed as inhibitors; actives 1.8% (n = 300,000); active = well fitted inhibition curve with a large enough effect; inconclusive = small, poorly fitted or top-dose-only effect, or effect the other way; inactive = flat fitted curve, though single readings scatter; tested in HEK293 cells; about a fifth of its hits are not listed in these tables; note: % is set by controls: 0 for no effect and ±100 for the full control effect; luciferase read-out
Cruzain Triton: blocks cruzain activity in presence of Triton detergent | P25779 | purified cruzain, Z-FR-AMC fluorescence, 0.01% Triton | Potency, µM, inactives show max response, negative = inhibition, actives largely listed as inhibitors | actives 0.43% (n = 200,000) | AID 1478;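 note: plate controls were neutral wells for no effect and buffer without enzyme for full effect; nearly all actives have a fitted effect of over 40% in size; top concentration of the series not given in the record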
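Cysteine protease activity tested under reducing, mildly acidic conditions (100 mM sodium acetate pH 5.5, 5 mM DTT) plus 0.01% Triton X-100. Cruzain 1.5 nM; substrate Z-FR-AMC 2 uM; 15 min compound preincubation at room temperature.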
The depositor's hits bear a star; ? = inconclusive; / = not tested or not shown; [ ] = remark or other dose. Unless noted, calls come from the whole dose curve; as a rule, active = well fitted curve in the direction sought with a large enough effect; inconclusive = small, poorly fitted or top-dose-only effect, or another doubt; inactive = no such curve, though single readings can be large; an effect the other way counts as inactive or inconclusive. Potency is the fitted concentration of half-maximal effect. Rows were taken by chance. About 4.5% of those tested had a hit in this group.

Sample of the layout, 5 compounds:
SMILES	LASV entry inh	2A StopGo	NS1 function inh	SARS PLP yeast	Cruzain inh noDet	RE007 growth inh	Marburg entry inh	Cruzain Triton
COc1ccc(CC(=O)NC(C)c2nnc(SCC(=O)c3ccc(Br)cc3)n2C)cc1 (configuration not stated)	16%[14.3 µM]	?	-10%	?	?	-16%	19%	3.1%
CCCn1c(=O)c2sccc2n2c(CCCC(=O)NCc3cccnc3)nnc12	/	0%	0%	1%	/	-4%	/	/
Cc1ccc(NC(=S)N2CCN(C3CCCCC3)CC2)cc1	-1%	16%	-7%	0%	1%	14%	?	1.8%
O=C(O)c1ccc(COc2ccccc2/C=C2\NC(=O)N(Cc3ccccc3F)C2=O)cc1	?	-14%	/	0%	/	-5%	3%[46.1 µM]	/
O=C(COC(=O)CNC(=O)C12CC3CC(CC(C3)C1)C2)NC1CCS(=O)(=O)C1 (configuration not stated)	?	-12%	-4%	19%	3%	20%	?	-2.8%

Results (from the top)
SMILES	LASV entry inh	2A StopGo	NS1 function inh	SARS PLP yeast	Cruzain inh noDet	RE007 growth inh	Marburg entry inh	Cruzain Triton
COc1ccc(CC(=O)NC(C)c2nnc(SCC(=O)c3ccc(Br)cc3)n2C)cc1 (configuration not stated)	16%[14.3 µM]	?	-10%	?	?	-16%	19%	3.1%
CCCn1c(=O)c2sccc2n2c(CCCC(=O)NCc3cccnc3)nnc12	/	0%	0%	1%	/	-4%	/	/
Cc1ccc(NC(=S)N2CCN(C3CCCCC3)CC2)cc1	-1%	16%	-7%	0%	1%	14%	?	1.8%
O=C(O)c1ccc(COc2ccccc2/C=C2\NC(=O)N(Cc3ccccc3F)C2=O)cc1	?	-14%	/	0%	/	-5%	3%[46.1 µM]	/
O=C(COC(=O)CNC(=O)C12CC3CC(CC(C3)C1)C2)NC1CCS(=O)(=O)C1 (configuration not stated)	?	-12%	-4%	19%	3%	20%	?	-2.8%
CCC(=O)CCC(=O)c1ccc2ccccc2c1	-6%	52%[activator]	3%	9%	-7%	-15%	?	-3.8%
CNC(=O)CSc1nc2sccc2c(=O)n1-c1ccccc1	14%	-20%	14%	-11%	/	-11%	-6%[46.1 µM]	/
Cc1ccccc1CN(CC(=O)Nc1cccc([N+](=O)[O-])c1)S(=O)(=O)c1ccc(Cl)cc1	?	40µM*	12%	-7%	-13%	-5%	?	-5.4%
COc1cccc(C2/C(=C(/O)c3cnn(-c4ccccc4)c3C)C(=O)C(=O)N2CCN(C)C)c1OC (configuration not stated)	-7%	0%	16%	-1%	?	1%	1.1µM*	-3.4%
CSCC[C@H](NC(=O)Nc1ccc(Oc2ccccc2)cc1)C(=O)O	/	-23%	1%	0%	/	0%	/	/
O=C1NC(=O)C(=Cc2ccc(Cl)cc2Cl)S1	?	-17%	/	/	/	?	?	/
CCCC(=O)NC(c1ccccc1Cl)c1c(O)ccc2ccccc12 (configuration not stated)	?	?	9%	7%	5%	-7%	-8%	-5.2%
CN(C)C(=O)c1ccc(Nc2nc(-c3cccs3)nc3ccccc23)cc1	?	-9%	-5%	-4%	/	-11%	?	/
CCN(CC)CCOC(=O)c1ccc(NC(=O)CNC(=O)C2CCCCC2)cc1	9%	-11%	-13%	-5%	-3%	6%	?	-2.0%
CCn1c(SCC(=O)Nc2ccccc2)nc2c([nH]c3ccccc32)c1=O	2%[46.1 µM]	10%	/	/	-5%	/	/	-3.1%
N#Cc1c(SCC(=O)O)nc(-c2ccccc2)c2c1CCCC2	-3%	-15%	-54%	-2%	3%	5%	10%	-7.0%
CSc1ccccc1C(=O)NCCOc1ccccc1C	1%[46.1 µM]	5%	/	0%	/	8%	-22%[46.1 µM]	/
O=C(OCc1ccc([N+](=O)[O-])cc1)C1CC(=O)N(CCc2ccccc2)C1 (configuration not stated)	15%[46.1 µM]	1%	/	-5%	/	1%	11%	/
CC(Oc1cccc(Cl)c1)C(=O)Nc1ccc(S(=O)(=O)N(C)C2CCN(C)CC2)cc1 (configuration not stated)	2%	-24%	/	-5%	/	9%	?	/
COc1ccccc1NC(=O)C1CCCN(c2ncnc3onc(-c4ccc(F)cc4)c23)C1 (configuration not stated)	-1%[46.1 µM]	0%	/	/	?	/	/	-3.3%
COc1ccc(NC(=O)Cn2nnc(C(=O)Nc3ccc(F)c(Cl)c3)c2N)cc1	2%[46.1 µM]	-5%	-14%	0%	/	-1%	-13%[46.1 µM]	/
COc1ccccc1CNC(=O)Cn1cnc2ccccc2c1=O	3%	24%	6%	2%	-3%	4%	?	5.9%
CC(=O)c1ccc([N+](=O)[O-])c(CS(=O)(=O)c2ccc(Cl)cc2)c1	/	-23%	0%	-1%	/	3%	/	/
COc1cc2c(cc1OC)-c1cc(Nc3cccc(C)c3)nc(=O)n1CC2	?	-10%	3%	0%	/	11%	?	/
CCCCNC(=S)N1CCn2cccc2C1c1ccc(F)cc1 (configuration not stated)	13µM*	-15%	/	-10%	/	1%	6.3µM*	/

Compound profiles, from the list above. Values in the order: LASV entry inh	2A StopGo	NS1 function inh	SARS PLP yeast	Cruzain inh noDet	RE007 growth inh	Marburg entry inh	Cruzain Triton
`COc1ccccc1CNC(=O)Cn1cnc2ccccc2c1=O` is entered as 3%	24%	6%	2%	-3%	4%	?	5.9%
`CCCCNC(=S)N1CCn2cccc2C1c1ccc(F)cc1` (configuration not stated) is entered as 13µM*	-15%	/	-10%	/	1%	6.3µM*	/

(list continues)
SMILES	LASV entry inh	2A StopGo	NS1 function inh	SARS PLP yeast	Cruzain inh noDet	RE007 growth inh	Marburg entry inh	Cruzain Triton
Cc1ccc(S(=O)(=O)Nc2ccc3[nH]c(=O)sc3c2)cc1C	-1%[46.1 µM]	26%	/	/	-3%	/	/	-5.7%
CCOC(=O)C1(C)Oc2cccnc2NC1=O (configuration not stated)	-13%	-17%	-2%	0%	/	0%	2%[46.1 µM]	/
O=C(Nc1cc(S(=O)(=O)N2CCOCC2)ccc1N1CCOCC1)c1ccccc1Cl	-21%	11%	/	-7%	/	2%	12%	/
COc1ccc(-c2nc(-c3ccncc3)no2)cc1OC	2%	59%[activator]	-12%	-2%	?	-4%[3.69 µM]	7%	-1.5%
CC(c1ccccc1)n1cc(C(=O)NCC2COc3ccccc3O2)nn1 (configuration not stated)	3%	6%	-5%	-9%	-6%	-5%	-28%[46.1 µM]	0.0%
CCn1cc2nc(SCc3cc(C)ccc3C)n(CCc3ccccc3)c(=O)c2n1	4µM*	0%	/	/	?	/	/	1.3%
O=C(NCCCn1ccnc1)/C(=C/c1ccco1)NC(=O)c1ccco1	0%[46.1 µM]	-1%	2%	0%	/	7%	17%[46.1 µM]	/
COCCNC(=O)C1CCN(C(=O)C2CC(=O)N(c3ccc(C)cc3)C2)CC1 (configuration not stated)	/	-2%	0%	6%	/	-7%	?	/
Cc1ccc(NC2=CC(=O)CC(c3ccccc3)C2)cc1 (configuration not stated)	?	30%	-3%	3%	-8%	5%	-27%	-4.0%
COc1ccc(OC)c(Cc2cnc3nc(N)nc(N)c3c2C)c1	0.25µM*	-12%	/	/	/	15%	0.11µM*	/
COc1ccc(NC(=O)C2CCCN(S(=O)(=O)c3cccc4nonc34)C2)cc1Cl (configuration not stated)	5%[46.1 µM]	-1%	/	/	-1%	/	8%[46.1 µM]	0.8%
CC1CCCCN1C(=O)CCC(=O)Nc1nnc(C2CCCCC2)s1 (configuration not stated)	-24%[46.1 µM]	3%	1%	-1%	/	-5%	11%[46.1 µM]	/
COc1ccc(C(CNC(=O)CSc2ccc(Br)cc2)N2CCOCC2)cc1 (configuration not stated)	-14%	-26%	/	9%	/	-4%	-16%[46.1 µM]	/
CC(C)(C)C1CCC(=NNc2nc3ccccc3[nH]2)CC1 (configuration not stated)	12%[46.1 µM]	-14%	/	3%	/	-23%	?	/
CCOc1ccc(CN2CCNC(=O)C2CC(=O)OC)cc1 (configuration not stated)	/	-20%	-11%	-3%	-10%	-10%	/	5.4%
NNC(=O)CNc1ccccc1Cl	32%	-7%	3%	-1%	/	6%	8%[46.1 µM]	/
CCCN1C(=O)CN(C2CCCCCC2)C(=O)C1c1ccc(C)cc1 (configuration not stated)	?	-14%	-8%	6%	5%	14%	?	7.7%
COc1ccc(NC(=S)NNc2ccc(C(=O)O)cc2)cc1	16%[46.1 µM]	?	8%	0%	/	-6%	?	/
Cc1cccc(N2CCN(C(=O)c3ccc(N4CCCC4=O)cc3)CC2C)c1 (configuration not stated)	?	32µM*	-13%	5%	11%	-1%	?	-1.0%
CCOC(=O)c1cccc(NC(=O)N2CCOCC2)c1	-11%[46.1 µM]	-6%	-1%	0%	/	5%	18%[46.1 µM]	/
Cc1ccc(-n2cc(-c3ccccc3)c3c(NC4CCCC4)ncnc32)cc1	1%[46.1 µM]	-20%	/	/	3%	/	/	-1.2%
O=C(CSc1nc(O)c(Cc2ccccc2)c(=O)[nH]1)Nc1ccccc1	18%	9%	?	12%	-14%	3%	8%	9.5%
NC(=O)c1nsc(C(=O)N(c2cccc(F)c2)C(C(=O)NC2CCCC2)c2ccco2)c1N (configuration not stated)	-21%[46.1 µM]	5%	5%	7%	/	7%	?	/
O=C(CNC(=O)c1ccccc1F)NCCc1ccc(Cl)cc1Cl	/	13%	5%	3%	/	9%	?	/
COC(=O)C(=CC(=CN(C)C)C=C(C(=O)OC)C(=O)OC)C(=O)OC	-15%	-8%	7%	1%	/	8%	?	/
O=C(NC(=S)NCC1CCCO1)c1ccco1 (configuration not stated)	11%	10%	8%	3%	/	-13%	?	/
C=CCOc1ccc2ccccc2c1CNn1c(C)n[nH]c1=S	/	-19%	20%	4%	/	-6%	/	/
Nc1nc(=O)c2ccccc2s1	20%	-5%	/	/	/	12%	?	/
O=C(O)c1ccccc1Nc1ccnc(Cl)n1	/	32%[activator]	-65%	1%	/	2%	/	/
CC1(C)CNC(=O)c2sc(N3CCOCC3)nc2C1	-6%	11%	7%	/	-3%	-8%	?	2.9%
